Env fusion inh = blocks HIV Env-driven cell-cell fusion. 1.1% of 360,000 active. HeLa-JRFL Env/CEM21 cell fusion, luciferase. inhibition, % at 12.3 µM;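 active = mean replicate inhibition score of at least 50 and every replicate individually at or above 50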;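 also: 0% = plate neutral controls and 100% = maraviroc near 300 nM; one replicate is shown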
* marks the source's active call; other numbers are inactive results; [ ] = another dose, or the depositor's remark.

SMILES | Env fusion inh
COc1ccccc1-c1ccc2n(c1=O)C[C@@H]1[C@@H](CO)[C@H](C(=O)N3CCCCC3)N(C)[C@H]21 | 6[16.7 µM]
C[C@@H]1ON(C)[C@H]2C[C@H]3c4[nH]c5c(-c6ccc(Cl)cc6)cccc5c4CCN3C(=O)[C@@H]12 | -9
CO[C@@H]1CN(C)C(=O)c2cc(NC(=O)NC(C)C)ccc2OC[C@H](C)N(C(=O)C2CCC2)C[C@H]1C | -7[16.7 µM]
CO[C@@H]1CN(C)C(=O)c2ccc(NC(=O)NC(C)C)cc2OC[C@H](C)N(C(=O)CC2CC2)C[C@H]1C | 14[16.7 µM]
C[C@@H]1CN([C@H](C)CO)C(=O)Cc2cc(N(C)C)ccc2O[C@H]1CN(C)S(=O)(=O)c1ccccc1 | 6[16.7 µM]
C[C@H](CO)N1C[C@H](C)[C@@H](CN(C)Cc2ccccc2)Oc2ccc(NS(C)(=O)=O)cc2C1=O | -25[16.7 µM]
O=C(CN1CCOCC1)NCC[C@H]1CC[C@H](NS(=O)(=O)c2ccc(F)cc2)[C@H](CO)O1 | 0[16.7 µM]
CC(C)C[C@H]1COc2cc(Br)ccc2S(=O)(=O)N1Cc1ccc(F)cc1F | 5
CO[C@@H]1CN(C)C(=O)c2cc(NC(C)=O)ccc2OC[C@@H](C)N(Cc2cccnc2)C[C@@H]1C | -8[16.7 µM]
Cc1[nH]c2ccccc2c1CC(=O)Nc1ccc(Nc2cccnc2)c(Br)c1 | -46
CO[C@H]1CN(C)C(=O)c2ccc(NC(C)=O)cc2OC[C@@H](C)N(C(=O)CN(C)C)C[C@H]1C | 9[16.7 µM]
COCc1[nH]nc2c1C(c1ccc(F)cc1)NC2=O (stereo unspecified) | -6
CNC[C@H]1OCCCC[C@@H](C)Oc2ccc(NC(=O)NC3CCCCC3)cc2C(=O)N([C@@H](C)CO)C[C@H]1C | -4[16.7 µM]
C[C@H](CO)N1C[C@H](C)[C@H](CN(C)C)OCc2ccccc2-c2ccccc2C1=O | 0[16.7 µM]
O=C(Nc1cc(F)ccc1F)N[C@@H]1CC[C@H](CCn2cc(C3CC3)nn2)O[C@H]1CO | 17[16.7 µM]
CCc1cc2c(nc1CC)CCCN2S(=O)(=O)c1ccc(C)cc1 | -9
COCC(=O)Nc1ccc2c(c1)C(=O)N(C)[C@@H]1CC[C@@H](CC(=O)N3CCc4ccccc4C3)O[C@H]1CO2 | -6[16.7 µM]
C[C@@H]1CN([C@@H](C)CO)C(=O)Cc2cc(NC(=O)Nc3ccc(C(F)(F)F)cc3)ccc2O[C@@H]1CN(C)S(C)(=O)=O | -17[16.7 µM]
Cc1ccc(CN(C)C[C@@H]2OCc3cn(nn3)CCCC(=O)N([C@@H](C)CO)C[C@@H]2C)cc1 | -6[16.7 µM]
C[C@@H]1CN([C@H](C)CO)C(=O)Cc2cc(NC(=O)CCN3CCOCC3)ccc2O[C@H]1CN(C)Cc1ccncc1 | -10[16.7 µM]
COc1ccccc1-c1ccc([C@H]2[C@@H](CO)N(C(=O)NC3CCCC3)[C@H]2C#N)cc1 | 18[16.7 µM]
Cc1ccc(S(=O)(=O)NCC[C@H]2CC[C@@H](NC(=O)CC3CC3)[C@H](CO)O2)cc1 | -8[16.7 µM]
CO[C@H]1CN(C)C(=O)c2cc(NC(=O)c3ccc4c(c3)OCO4)ccc2OC[C@@H](C)N(CC2CC2)C[C@H]1C | 15[16.7 µM]
CO[C@H]1CN(C)C(=O)c2ccc(NC(C)=O)cc2OC[C@@H](C)N(C(=O)c2ccccc2F)C[C@@H]1C | -2[16.7 µM]
O=C(C[C@@H]1CC[C@H](NS(=O)(=O)c2ccc(F)cc2)[C@@H](CO)O1)NCc1ccc(Cl)c(Cl)c1 | -4[16.7 µM]

Continuation.
SMILES | Env fusion inh
CCCNC(=O)c1cc2c(c(-c3cccc(-c4cccc(F)c4)c3)n1)[C@@H](CCO)N([S@](=O)C(C)(C)C)C2 | -5[16.7 µM]
C[C@H]1CN([C@@H](C)CO)C(=O)CCCn2cc(nn2)CO[C@H]1CN(C)C(=O)Nc1ccc(C(F)(F)F)cc1 | 7[16.7 µM]
C#CCN(C[C@@H]1[C@@H](OC(=O)Nc2cccs2)[C@@H](OC(=O)Nc2cccs2)C[C@H](C(=O)OC)[C@@H]1C(=O)OC)S(=O)(=O)c1ccc(C)cc1 | -27
Cc1cccc(C=NNc2cc(C)c3cccc(C)c3n2)n1 | -44
C[C@@H]1CN([C@@H](C)CO)C(=O)c2c(c3ccccc3n2C)-c2ccccc2CO[C@H]1CN(C)S(=O)(=O)c1cccc(C#N)c1 | 22[16.7 µM]
CN1OC[C@@H]2CN(C(=S)Nc3cc(C(F)(F)F)cc(C(F)(F)F)c3)[C@H](c3ccccc3Br)C[C@@H]21 | 20
C[C@@H]1CN([C@H](C)CO)C(=O)c2cc(-c3ccc(F)cc3)cnc2O[C@H]1CN(C)C(=O)c1ccncc1 | -9[16.7 µM]
CC=Cc1ccc2n(c1=O)C[C@H]1[C@H](CO)[C@@H](C(=O)N(C)C)[C@@H]2N1C(=O)c1ccc(F)cc1 (mixture of isomers) | 6[16.7 µM]
C[C@H]1CN([C@@H](C)CO)C(=O)c2cc(N(C)C)ccc2O[C@@H]1CN(C)C | 12[16.7 µM]
O=C(NCC1CC1)[C@@H]1[C@@H](CO)[C@@H]2Cn3c(ccc(-c4cccnc4)c3=O)[C@H]1N2C(=O)C1CC1 | 13[16.7 µM]
C[C@H]1CN([C@@H](C)CO)C(=O)Cc2cc(NS(C)(=O)=O)ccc2O[C@H]1CN(C)CC1CCCCC1 | -7[16.7 µM]
CN1C(=O)c2cc(NS(C)(=O)=O)ccc2OC[C@@H]2O[C@@H](CC(=O)NC3CCCCC3)CC[C@H]21 | -6[16.7 µM]
C[C@@H]1CCCCO[C@@H](CN(C)CC2CC2)[C@@H](C)CN([C@H](C)CO)C(=O)c2cc(NC(=O)Nc3ccc4c(c3)OCO4)ccc2O1 | -3[16.7 µM]
C[C@H](NC(=O)C[C@H]1CC[C@@H]2[C@H](COC[C@@H](O)CN2C(=O)Nc2cccc(Cl)c2)O1)c1ccccc1 | -13[16.7 µM]
COC(=O)C[C@@H]1CC[C@@H](NC(=O)C2CCC2)[C@@H](CO)O1 | -11
O=C(CCN1CCCCC1)NCC[C@@H]1CC[C@@H](NC(=O)C2CCCCC2)[C@H](CO)O1 | -29[16.7 µM]
CO[C@@H]1CN(C)C(=O)c2cc(NS(=O)(=O)CC(F)(F)F)ccc2OC[C@H](C)N(CC2CCCCC2)C[C@@H]1C | -3[16.7 µM]
O=C(C[C@@H]1CC[C@@H]2[C@H](COC[C@H](O)CN2C(=O)c2cccnc2)O1)Nc1ccc(-c2ccccc2)cc1 | 4[16.7 µM]
CN1C(=O)c2cc(NC(=O)Nc3ccccc3Cl)ccc2OC[C@@H]2O[C@@H](CC(=O)NCCCN3CCOCC3)CC[C@@H]21 | 4[16.7 µM]
C[C@@H]1CN([C@@H](C)CO)C(=O)c2c(c3ccccc3n2C)-c2ccccc2CO[C@H]1CN(C)S(=O)(=O)Cc1ccccc1 | 9[16.7 µM]
O=C(Nc1ccc2c(c1)[C@H]1C[C@@H](CC(=O)N3CCCCC3)O[C@@H](CO)[C@H]1O2)NC1CCCC1 | -21[16.7 µM]
CO[C@H]1CN(C)C(=O)c2ccc(NC(=O)Nc3ccccc3F)cc2OC[C@H](C)N(CC2CC2)C[C@H]1C | 13[16.7 µM]
COCc1[nH]nc2c1C(c1ccc(C)cc1)N(c1ccc(OC)cc1)C2=O (stereo unspecified) | -16
CC(C)(C)[S@@](=O)N1Cc2cc(C(=O)NC3CCCCC3)nc(-c3cccc(Br)c3)c2[C@H]1CCO | -45[16.7 µM]
O=C1N[C@H](Cc2ccccc2)COCn2nncc2CC[C@H]1Cc1ccccc1 | 15[16.7 µM]

In another format: results already given.
C[C@@H]1CN([C@@H](C)CO)C(=O)c2c(c3ccccc3n2C)-c2ccccc2CO[C@H]1CN(C)S(=O)(=O)c1cccc(C#N)c1
  Env fusion inh = 22[16.7 µM]
C#CCN(C[C@@H]1[C@@H](OC(=O)Nc2cccs2)[C@@H](OC(=O)Nc2cccs2)C[C@H](C(=O)OC)[C@@H]1C(=O)OC)S(=O)(=O)c1ccc(C)cc1
  Env fusion inh = -27

A second format for part of the listing above:
molecule	Env fusion inh
CO[C@@H]1CN(C)C(=O)c2cc(NS(=O)(=O)CC(F)(F)F)ccc2OC[C@H](C)N(CC2CCCCC2)C[C@@H]1C	-3[16.7 µM]
C[C@@H]1CCCCO[C@@H](CN(C)CC2CC2)[C@@H](C)CN([C@H](C)CO)C(=O)c2cc(NC(=O)Nc3ccc4c(c3)OCO4)ccc2O1	-3[16.7 µM]
C#CCN(C[C@@H]1[C@@H](OC(=O)Nc2cccs2)[C@@H](OC(=O)Nc2cccs2)C[C@H](C(=O)OC)[C@@H]1C(=O)OC)S(=O)(=O)c1ccc(C)cc1	-27
CN1C(=O)c2cc(NS(C)(=O)=O)ccc2OC[C@@H]2O[C@@H](CC(=O)NC3CCCCC3)CC[C@H]21	-6[16.7 µM]
Cc1cccc(C=NNc2cc(C)c3cccc(C)c3n2)n1	-44
O=C1N[C@H](Cc2ccccc2)COCn2nncc2CC[C@H]1Cc1ccccc1	15[16.7 µM]

(further entries)
SMILES | Env fusion inh
Cc1ccccc1S(=O)(=O)N1C[C@H](O)COC[C@@H]2O[C@@H](CC(=O)NCCc3ccccc3)CC[C@H]21 | 7[16.7 µM]
Cc1[nH]c2ccccc2c1CC(=O)Nc1ccc(Nc2ccncc2)cc1 | -27
C[C@H](CO)N1C[C@H](C)[C@H](CN(C)S(=O)(=O)c2ccc(Cl)cc2)Oc2ccc(NS(=O)(=O)c3ccccc3)cc2C1=O | 41[16.7 µM]
O=C(NC[C@H]1CC[C@@H]2[C@@H](CN2S(=O)(=O)c2ccccc2F)O1)C1CCCCC1 | 6[16.7 µM]
Cc1noc(C)c1NC(=O)Nc1ccc2c(c1)C(=O)N([C@H](C)CO)C[C@H](C)[C@@H](CN(C)C)OCCCC[C@@H](C)O2 | 5[16.7 µM]
CC(=O)O[C@H]1C[C@@H](n2cnc3c(Cl)ncnc32)[C@@H]2OC(C)(C)O[C@@H]21 | -28
CN1C(=O)c2cc(NC(=O)c3ccc(F)c(F)c3)ccc2OC[C@@H]2O[C@H](CC(=O)N[C@H]3CCN(Cc4ccccc4)C3)CC[C@@H]21 | 16[16.7 µM]
CO[C@H]1CN(C)C(=O)c2cccc(C#N)c2OC[C@@H]2O[C@H](CC[C@H]2OC)CCN(C)C(=O)[C@H]1C | 7[16.7 µM]
CN(C)C(=O)[C@@H]1[C@@H](CO)[C@@H]2Cn3c(ccc(C4=CCCC4)c3=O)[C@H]1N2C(=O)Nc1ccccc1 | 16[16.7 µM]
CN1CCN(C(=O)C[C@@H]2CC[C@@H]3[C@@H](COc4ccc(NC(=O)C5CCOCC5)cc4C(=O)N3C)O2)CC1 | -2[16.7 µM]
COc1ccc(-c2cn(CC[C@@H]3CC[C@@H](NC(=O)CCN4CCCCC4)[C@H](CO)O3)nn2)cc1 | 12[16.7 µM]
C[C@H](CO)N1C[C@H](C)[C@@H](CN(C)C(=O)C2CCC2)Oc2cc(-c3ccc(F)cc3)ccc2S1(=O)=O | 8[16.7 µM]
C[C@@H]1CN([C@H](C)CO)C(=O)c2cc(NC(=O)c3ccncc3)ccc2O[C@@H](C)CCCCO[C@@H]1CN(C)Cc1ccccc1 | 2[16.7 µM]
O=C([C@H]1N[C@H]2c3ccc(-c4ccccc4F)c(=O)n3C[C@H]2[C@@H]1CO)N1CCc2ccccc2C1 | 12[16.7 µM]
C/C=C/c1ccc2c(c1)O[C@@H](CN(C)C(=O)C1CCC1)[C@H](C)CN([C@@H](C)CO)S2(=O)=O | -24[16.7 µM]
C[C@@H]1CCCCO[C@@H](CN(C)C(=O)c2ccccc2)[C@@H](C)CN([C@@H](C)CO)C(=O)c2cc(NC(=O)c3ccccc3)ccc2O1 | 7[16.7 µM]
O=C(C[C@H]1C[C@@H]2c3cc(NS(=O)(=O)c4ccc(F)cc4)ccc3O[C@@H]2[C@H](CO)O1)NCc1ccc(Oc2ccccc2)cc1 | 25[16.7 µM]
C[C@@H]1CN([C@@H](C)CO)C(=O)c2ccccc2-c2ccccc2CO[C@@H]1CN(C)S(=O)(=O)c1ccc(Cl)cc1 | 20[16.7 µM]
O=C(Nc1ccc(Cl)c(Cl)c1)N[C@H]1CC[C@H](CCNC(=O)c2ccc(F)cc2)O[C@@H]1CO | 24[16.7 µM]
CO[C@H]1CN(C)C(=O)c2cc(NC(=O)NC(C)C)ccc2OC[C@@H](C)N(CCC(F)(F)F)C[C@@H]1C | -9[16.7 µM]
COc1cccc(S(=O)(=O)N[C@@H]2CC[C@@H](CCN)O[C@H]2CO)c1 | -14[16.7 µM]
CC(C)NC(=O)Nc1ccc2c(c1)C(=O)N([C@H](C)CO)C[C@H](C)[C@@H](CN(C)C(=O)CCC(F)(F)F)OCCCC[C@@H](C)O2 | 8[16.7 µM]
CCCNC(=O)C[C@@H]1CC[C@@H]2[C@H](COC[C@H](O)CN2C(=O)c2cccnc2)O1 | -9[16.7 µM]
COc1ccc(S(=O)(=O)N(C)C[C@H]2Oc3ncc(/C=C/c4ccccc4)cc3C(=O)N([C@@H](C)CO)C[C@@H]2C)cc1 | 33[16.7 µM]
CCCC(=O)N1CCC2(CC1)CN(C(=O)Nc1cccc(F)c1)[C@@H](CO)c1c2c2ccc(OC)cc2n1C | -23[16.7 µM]
COC(=O)C1=C(C)N(Cc2cccc(C(F)(F)F)c2)C(=NCc2ccc3c(c2)OCO3)NC1c1cccc(Cl)c1 (stereo unspecified) | 24
CO[C@@H]1CC[C@H]2CCN(C)C(=O)CCCN(C)C(=O)c3cccc(C#N)c3OC[C@@H]1O2 | 19[16.7 µM]
C[C@@H]1CCCCO[C@H](CN(C)C(=O)c2ccncc2)[C@H](C)CN([C@@H](C)CO)C(=O)c2cc(NC(=O)c3ccncc3)ccc2O1 | 0[16.7 µM]
COc1ccc2c3c(n(C)c2c1)[C@@H](CO)N(C(=O)c1ccccn1)CC31CCN(C(=O)c2ccccn2)CC1 | 14[16.7 µM]
CO[C@H]1CN(C)C(=O)c2cc(NC(=O)C3CCCC3)ccc2OC[C@H](C)N(C(C)=O)C[C@@H]1C | 8[16.7 µM]

High-throughput results (PubChem)

These rows are one share of the data. The share of hits here may be higher or lower than overall.
